D2 ag: human D2 receptor agonism in beta-arrestin assay; P14416; DiscoveRx PathHunter D2 beta-arrestin, luminescence, 90 min; 100% = 57 uM dopamine signal; activation, % (test concentration not listed); 360,000 compounds, 0.084% hits; in the data active = activation above about 40%; inconclusive = about 15% to 40%; inactive = below about 15%; note: compound concentration not given in the record; the text of the record calls up to 30% inactive
Target sequence (P14416 whole entry, looked up): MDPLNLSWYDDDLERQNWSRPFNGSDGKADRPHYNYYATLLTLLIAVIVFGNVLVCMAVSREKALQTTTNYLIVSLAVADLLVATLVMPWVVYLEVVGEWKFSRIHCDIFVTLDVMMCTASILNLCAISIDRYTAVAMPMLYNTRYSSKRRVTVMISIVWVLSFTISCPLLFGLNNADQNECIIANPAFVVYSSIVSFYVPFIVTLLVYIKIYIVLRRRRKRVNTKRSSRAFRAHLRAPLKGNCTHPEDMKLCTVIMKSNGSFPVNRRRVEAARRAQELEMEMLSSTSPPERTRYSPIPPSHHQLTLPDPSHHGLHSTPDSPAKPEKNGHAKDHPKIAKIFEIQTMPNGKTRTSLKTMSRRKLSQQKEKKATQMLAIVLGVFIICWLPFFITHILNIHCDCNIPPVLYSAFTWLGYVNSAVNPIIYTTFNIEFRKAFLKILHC
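DiscoveRx PathHunter D2 beta-arrestin cells (2,100/well) attached overnight, then compound-stimulated 90 min at 37 C in HBSS/10 mM HEPES/0.1% Tween-20 buffer; beta-galactosidase complementation read by luminescence after 1 h at ambient temperature. Dopamine 57 uM final (EC100) as control.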
TRPML1 blocker: inhibitors of human TRPML1 channel | TRPML1-inducible cells, Ca2+ dye fluorescence, FDSS; stronger effect = lower value; inhibition of EC80 agonist-evoked calcium signal | activity change, negative = inhibition, % (concentration not given with the values) | 390,000 compounds, 0.02% hits | AID 624415; in the data active means activity change below about -50%; inconclusive means about -30% to -50%; inactive means above about -30%;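 note: stimulus is agonist 54-4 at its EC80 concentration; % is set by controls: 0 for no effect and ±100 for the full control effect; the text of the record puts the active cut at -80%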
Target sequence (Q9GZU1 whole entry, looked up): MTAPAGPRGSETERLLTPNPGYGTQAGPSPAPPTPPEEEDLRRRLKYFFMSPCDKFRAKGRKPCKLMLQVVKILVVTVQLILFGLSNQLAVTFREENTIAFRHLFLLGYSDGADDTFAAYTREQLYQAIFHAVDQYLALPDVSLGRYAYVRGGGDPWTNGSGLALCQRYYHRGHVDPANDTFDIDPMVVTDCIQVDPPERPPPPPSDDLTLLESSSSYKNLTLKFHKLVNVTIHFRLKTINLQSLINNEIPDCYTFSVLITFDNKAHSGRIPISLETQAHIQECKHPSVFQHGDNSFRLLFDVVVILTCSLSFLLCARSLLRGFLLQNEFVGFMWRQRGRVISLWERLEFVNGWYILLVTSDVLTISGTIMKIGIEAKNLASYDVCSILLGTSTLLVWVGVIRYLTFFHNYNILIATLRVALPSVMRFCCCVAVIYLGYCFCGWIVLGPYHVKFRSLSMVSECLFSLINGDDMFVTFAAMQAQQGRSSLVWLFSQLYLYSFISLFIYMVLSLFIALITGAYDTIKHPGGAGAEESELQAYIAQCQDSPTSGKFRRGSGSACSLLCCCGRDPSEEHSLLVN
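TRPML1-DL cells, Tet-induced overnight (~16 h, 37 °C) at 1,500 cells/well, were loaded with Ca8 no-wash dye plus quencher for 45-90 min at room temperature. Compounds were pinned during FDSS kinetic reading; agonist 54-4 at EC80 (4 uM final) then added.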
D2 PAM: positive allosteric modulators of human D2 dopamine receptor; P14416; DiscoveRx D2 beta-arrestin cells, luminescence, 90 min; 100% = 57 uM dopamine signal; potentiation, % (no concentration beside the values); 360,000 compounds, 0.23% hits; active = potentiation of 50% or more; inconclusive = 30% to 50%; inactive = 30% or less;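 note: compound concentration not given in the record; tested on top of an EC20 dose of dopamine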
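PathHunter D2 cells, attached overnight at 37 deg C, received compound in DMSO plus dopamine at EC20 (50 nM final) for 90 min at 37 deg C. Beta-arrestin recruitment was read as luminescence after 1 h with detection reagent at ambient temperature.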
Six1-Eya2 blk: inhibitors of human Six1/Eya2 interaction. Q15475+O00167. AlphaScreen GST-Six1/His-Eya2 binding, biochemical; stronger effect = lower value; control for the full effect not named in the record. activity change, % (concentration not given with the values). 360,000 compounds, 0.56% hits; in the data active = activity change below about -65%; inconclusive = about -30% to -65%; inactive = above about -30%; note: % is set by controls: 0 for no effect and ±100 for the full control effect
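GST-Six1 + His-Eya2 (5X stock: 250/500 nM); Tris pH 8.0, 300 mM NaCl, 0.05% BSA, 0.02% Tween 20; GSH donor/Ni acceptor beads; 1 h 37 °C dark; AlphaScreen readout.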
TRPML1 ag: human mucolipin-1 channel agonism; Q9GZU1; TRPML1-expressing cells, Ca2+ dye fluorescence, FDSS; host cell line not named in the record; reference of the full effect not given here; activation, % (test concentration not listed); 410,000 compounds, 0.12% hits; AID 624414; in the data active = activation above about 50%; inconclusive = about 30% to 50%; inactive = below about 30%; note: 0% is about no effect; the text of the record puts the active cut at 80%
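Kinetic FDSS Ca2+ read in Tet-induced TRPML1-DL cells (ABD Ca8 dye plus quencher, 45-90 min RT loading): baseline, then compound, then 110 s agonist window; EC80 agonist 54-4 at 4uM final added afterwards for a 110 s antagonist window.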
PINK1 expr mod: PINK1 expression modulation; PINK1 immunofluorescence, high-content cytometry, 24 h; 410,000 compounds, 0.2% hits; Potency, µM (doses to about 76.6 µM), inactives show at the top dose activation (PINK1 increase), most hits filed as activators; active = well fitted activation curve with a large enough effect; inconclusive = small, poorly fitted or top-dose-only effect; inactive = flat fitted curve, though single readings scatter; cell line not stated here;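 note: potency is the fitted concentration of half-maximal effect; % of control where 0% means no effect; nearly all actives have a fitted effect of over 65% in size; a mitochondrial uncoupler was the plate control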
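Stable cell line treated 24 h with compounds at 5 concentrations (CCCP controls), then fixed and immunostained for PINK1 plus nuclear and cell stains; PINK1 immunofluorescence quantified by laser-scanning microplate cytometry.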
Active calls of the source: *; u = inconclusive; x = not tested or not shown; & = joins results of further samples; [ ] = dose if it differs, or a comment.

The line under a structure holds: D2 ag	TRPML1 blocker	D2 PAM	Six1-Eya2 blk	TRPML1 ag	PINK1 expr mod
1	Cc1c(Cl)c([N+](=O)[O-])nn1CCCC(=O)Nc1sc2c(c1C(N)=O)CCC(C)C2 (stereo unspecified)
  -2.0	-1	12	11	1.4	7.9%
2	COc1ccc(-n2c(=O)[nH]c3cc(C(=O)NCCc4ccc(Cl)cc4)ccc3c2=O)cc1OC
  -7.3	-9&21	-6	-3	0.5&-0.6	2.5%&5.7%
3	O=C(Nc1ccn(Cc2ccc(Cl)cc2)n1)c1ccc2c(c1)OCO2
  -0.9	15	1	-2	2.0	0.5%[38.3 µM]
4	CCN1CCN(c2ccc(NS(=O)(=O)c3c(C)nc4sccn4c3=O)cc2Cl)CC1
  x	-16	x	x	1.1	-0.8%
5	O=C1C2C3c4ccccc4C(c4ccccc43)C2C(=O)N1c1cccnc1 (stereo unspecified)
  -1.4	4	5	6	-0.8	-0.8%
6	CCOC(=O)c1ccc(NC(=O)CCS(=O)(=O)c2ccc(C)cc2)cc1
  x	28	x	x	2.3	0.3%
7	CCOC(=O)CN(C(=O)CNC(=O)c1cccs1)C(C(=O)NC1CCCC1)c1cccnc1 (stereo unspecified)
  -2.9	-7	0	2	-0.1	2.7%
8	O=C(C=Cc1ccccn1)c1ccccc1
  1.5	-7	-6	0	0.9	-4.4%
9	CCCc1c(C)[nH]c2nc3ccccc3n2c1=O
  -2.1	3	-9	4	-1.1	-1.0%
10	COc1ccc(C(=O)N2CCCN(C)CC2)c(OC)c1
  2.8	3	4	3	0.2	1.7%
11	COc1ccccc1C1c2[nH]c3ccccc3c2C[C@H]2C(=O)N(C3CCN(Cc4ccccc4)CC3)CC(=O)N12 (stereo partly specified)
  0.3	x	-22	-9	x	1.3%
12	CCn1cc(C2=NCC(C)O2)c2ccccc21 (stereo unspecified)
  -2.1	-18	-4	1	0.7	-2.8%[38.3 µM]
13	CCCCOC(=O)c1ccc(NC(=O)COC(=O)CSc2nc(C)cc(C)n2)cc1
  -6.5	u	13	-2	-0.1	5.5%
14	Cc1cccc(NC(=O)/C(C#N)=C\c2ccc(C(=O)O)cc2)c1
  5.2	10	3	-1	-0.5	-0.9%
15	Cc1oc(-c2ccccc2Cl)nc1CN1CCCCC1c1cccnc1 (stereo unspecified)
  0.3	-16	-7	-15	0.7	0.4%
16	NC(=O)C1(N2CCCCC2)CCN(C(=S)Nc2ccccc2)CC1
  -0.9	-18	1	-15	-0.4	-1.8%
17	O=C(NCc1cccc(Cl)c1)c1cccc2c(-c3cccnc3)coc12
  8.7	x	-11	u	0.1	-1.2%
18	COc1cccc(NC(=O)CN(C)C(=O)CSc2nc(C)cc(C)n2)c1
  -2.0	-15	-1	1	-0.7	1.0%
19	CCc1ccc(CNC(=O)CCn2nc(C)c3c(C)n(-c4ccccc4)nc3c2=O)cc1
  0.4	-25&-12	-8	1	1.3&1.0	1.3%&-0.2%
20	COCCCNC(=O)CSc1nc2nc(C)c(Cc3ccccc3Cl)c(C)n2n1
  x	-4	x	x	0.2	1.2%

Next section.
The line under a structure holds: D2 ag	TRPML1 blocker	D2 PAM	Six1-Eya2 blk	TRPML1 ag	PINK1 expr mod
21	Cc1ccc2scc(N3CCN(c4ccccc4)CC3)c(=O)c2c1
  x	10	x	x	1.5	1.2%
22	COC(=O)c1[nH]c2cccc(Cl)c2c1NC(=O)CN(C)C1CCCCC1
  -7.3	-7	-18	-3	3.2	-1.0%
23	O=C(NN=C1CCCC1)c1ccccc1[N+](=O)[O-]
  14	-10	2	3	-0.5	1.0%
24	CC1CCCCN1C(=O)CSc1nnc(-c2c[nH]c3ccccc23)o1 (stereo unspecified)
  2.2	3	-2	-7	-0.6	-0.3%[38.3 µM]
25	C#CCOCCOCCOCCNc1nc(N2CCN(C(=O)CCCCCCCCCCNC(=O)Cn3cc(C[C@@H](C)O)nn3)CC2)nc(N2CCN(C(=O)CCCCCCCCCCNC(=O)[C@H](CCCCN)n3cc(C[C@@H](C)CC)nn3)CC2)n1
  1.6	0	-20	-21	-0.7	-0.6%
26	COc1cc(CNC(=O)Nc2nc(C(N)c3ccccc3)cs2)cc(OC)c1OC (stereo unspecified)
  -3.0	x	-4	u	-0.5	-0.6%
27	Cc1ccc(S(=O)(=O)N/N=C/c2c(C)nn(-c3ccccc3)c2C)cc1
  -3.6	-6	-6	10	0.4	5.4%
28	CC(=O)Nc1ccc(NC(=O)C2CCC(CNS(=O)(=O)c3cccc4nsnc34)CC2)cc1 (stereo unspecified)
  -3.7	8	-4	7	1.1	0.9%
29	CC(C)c1ccc(NC(=O)C2CCCN(S(=O)(=O)c3cnc[nH]3)C2)cc1 (stereo unspecified)
  -2.2	u	-1	9	-0.5	10.0%
30	O=C(Cc1ccccc1)Nc1sc2c(c1C(=O)Nc1ccccc1Cl)CCCCC2
  x	22	x	x	1.6	-0.5%
31	CCOC(=O)Cn1cc(C=O)c2ccccc21
  -0.7	1	-16	-1	0.2	x
32	CC(C)(C)N(Cc1ccccc1)C(=O)c1ccncc1
  -4.9	16	-4	4	0.5	-1.2%
33	O/N=C/c1ccc(OCc2ccccc2)c(Cl)c1
  0.3	-5	-13	0	-0.2	-2.2%
34	O=S1(=O)NC(=NCc2ccccc2)c2ccccc21
  -3.1	-9	5	-2	-0.2	4.7%[38.3 µM]
35	COc1cccc(CNC(=O)c2nn(C)c3c2CS(=O)(=O)c2ccccc2-3)c1
  x	-15	x	x	-0.2	-0.8%
36	CC(=O)N1CCC(N(Cc2ccco2)C(=O)Nc2cccc(C)c2)CC1
  x	11	x	x	-0.7	15%
37	Cn1c(Cc2ccccc2)nnc1SCC(=O)Nc1ccc(N2CCOCC2)cc1
  -6.0	6	-5	-1	-1.0	-0.7%
38	COc1ccc(Nc2ccc(S(=O)(=O)N3CCCCC3)cc2[N+](=O)[O-])cc1Cl
  -4.6	18	28	u	1.5	-3.7%
39	CCCCn1c(=O)c(CC(C)=O)nc2ccccc21
  1.9	-3	-2	-1	-0.5	7.0%
40	O=C(c1ccco1)N1CCN(C(c2ccc(F)cc2)c2nnnn2Cc2cccs2)CC1 (stereo unspecified)
  -1.9	1	8	-1	-0.1	1.3%

Full records from above:
`CC(C)(C)N(Cc1ccccc1)C(=O)c1ccncc1` across the screens: D2 ag: -4.9; TRPML1 blocker: 16; D2 PAM: -4; Six1-Eya2 blk: 4; TRPML1 ag: 0.5; PINK1 expr mod: -1.2%
`CCOC(=O)Cn1cc(C=O)c2ccccc21` across the screens: D2 ag: -0.7; TRPML1 blocker: 1; D2 PAM: -16; Six1-Eya2 blk: -1; TRPML1 ag: 0.2; PINK1 expr mod: x

Sorted by formula weight (smallest number first): twelve of the compounds above.
The line under a structure holds: D2 ag	TRPML1 blocker	D2 PAM	Six1-Eya2 blk	TRPML1 ag	PINK1 expr mod
31	CCOC(=O)Cn1cc(C=O)c2ccccc21
  -0.7	1	-16	-1	0.2	x
32	CC(C)(C)N(Cc1ccccc1)C(=O)c1ccncc1
  -4.9	16	-4	4	0.5	-1.2%
34	O=S1(=O)NC(=NCc2ccccc2)c2ccccc21
  -3.1	-9	5	-2	-0.2	4.7%[38.3 µM]
21	Cc1ccc2scc(N3CCN(c4ccccc4)CC3)c(=O)c2c1
  x	10	x	x	1.5	1.2%
36	CC(=O)N1CCC(N(Cc2ccco2)C(=O)Nc2cccc(C)c2)CC1
  x	11	x	x	-0.7	15%
24	CC1CCCCN1C(=O)CSc1nnc(-c2c[nH]c3ccccc23)o1 (stereo unspecified)
  2.2	3	-2	-7	-0.6	-0.3%[38.3 µM]
27	Cc1ccc(S(=O)(=O)N/N=C/c2c(C)nn(-c3ccccc3)c2C)cc1
  -3.6	-6	-6	10	0.4	5.4%
22	COC(=O)c1[nH]c2cccc(Cl)c2c1NC(=O)CN(C)C1CCCCC1
  -7.3	-7	-18	-3	3.2	-1.0%
38	COc1ccc(Nc2ccc(S(=O)(=O)N3CCCCC3)cc2[N+](=O)[O-])cc1Cl
  -4.6	18	28	u	1.5	-3.7%
26	COc1cc(CNC(=O)Nc2nc(C(N)c3ccccc3)cs2)cc(OC)c1OC (stereo unspecified)
  -3.0	x	-4	u	-0.5	-0.6%
30	O=C(Cc1ccccc1)Nc1sc2c(c1C(=O)Nc1ccccc1Cl)CCCCC2
  x	22	x	x	1.6	-0.5%
28	CC(=O)Nc1ccc(NC(=O)C2CCC(CNS(=O)(=O)c3cccc4nsnc34)CC2)cc1 (stereo unspecified)
  -3.7	8	-4	7	1.1	0.9%

(listing goes on)
The line under a structure holds: D2 ag	TRPML1 blocker	D2 PAM	Six1-Eya2 blk	TRPML1 ag	PINK1 expr mod
41	CCOc1cc(/C=C(\C#N)C(=O)NCc2cccnc2)ccc1O
  -4.7	-10	-2	-1	0.5	-0.6%
42	CC1(C)NC(=O)N(CC(O)Cn2nnc3ccccc32)C1=O (stereo unspecified)
  -3.3	21	-4	-2	6.1	1.0%
43	Cc1ccc(SCCNC(=O)c2ccc(C)c([N+](=O)[O-])c2)cc1
  1.7	-18	-31	9	4.3	-0.4%
44	Cc1ccc(CN2CC(N3CCN(C4CCN(C)CC4)CC3)CS2(=O)=O)cc1 (stereo unspecified)
  -3.7	x	-5	6	-0.3	0.4%
45	CN(CCOc1ccccc1)CCOc1ccccc1
  -1.4	44	-14	1	0.1	4.4%
46	CCn1ccc(C(=O)NC2CCCC2)n1
  -0.7	28	-2	7	0.8	1.4%
47	Cc1cc(NC(=O)CSc2nnc(CNC(=O)c3cccc(C(F)(F)F)c3)o2)no1
  0.7	-14	18	-72*	0.1	-1.3%
48	Cc1nc(N2CCCCC2)sc1C(=O)c1ccc(SCCO)c([N+](=O)[O-])c1
  -2.5	-17	0	-19	1.9	-0.2%
49	COc1ccc(CNC(=O)c2ccc(NC(=O)N3CCSc4ccccc43)cc2)cc1
  x	-1	x	x	1.4	-0.5%
50	CCCc1c(C(=O)NNc2cc(C(F)(F)F)ccc2Cl)cnn1-c1ccccc1
  -2.5	0	-5	-4	-0.3	8.8%
51	CCOC(=O)C[C@H]1c2ccc(C(F)(F)F)cc2S(=O)(=O)N1C1CCCC1
  0.9	33	-4	15	0.7&-0.6	-1.3%
52	O=C1CSC2(C(=O)N(Cc3ccccc3F)c3ccccc32)N1c1cccc(C(F)(F)F)c1 (stereo unspecified)
  x	25	x	x	2.2	0.1%
53	COC(=O)c1ccc(CSc2nc3scc(-c4cccs4)c3c(=O)[nH]2)o1
  -2.1	-4	-4	-11	0.0	-0.8%
54	COc1cc2c(cc1OC)-c1nnc(C)n1C(C)(C)C2
  -1.5	-2	-10	1	-0.1	4.6%[38.3 µM]
55	COc1ccc(CC(=O)Nc2ccccc2N2CCOCC2)cc1OC
  -0.1	-4	12	2	-0.3	0.4%
56	COc1ccc(C2=NO[C@@H]3C(=O)N(c4ccc5c(c4)OCCO5)C(=O)[C@H]23)cc1OC
  1.7	-1	u	0	-0.1	-1.8%
57	S=C(NCc1ccc(Cl)c(Cl)c1)NCc1ccco1
  4.4	28	5	0	-0.2	5.2%
58	CCOC(=O)[C@H]1[C@H]2COc3ccccc3[C@@H]2N2C(=O)c3cc(Cl)ccc3NC(=O)[C@@]12C
  -4.6	25	-11	-12	0.7	0.6%

High-throughput results (PubChem BioAssay)
